Source: PubChem (several laboratories)
Mtb H37Rv: M. tuberculosis H37Rv growth inhibitors, H37Rv strain (AID 1626); 0.95% of 220,000 active; one-dose inhibition, % at 10 µM; IC50 in µM for titrated hits; M. tuberculosis H37Rv growth inhibition; higher % means a stronger effect;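 active means confirmed in a dose series; inconclusive means inhibition above 80% but not taken into the dose series; inactive means below 80% or under 30% at every dose of the series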;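 further: bacteria incubated seven days before Alamar blue readout; 0% = bacteria only wells and 100% = bacteria with antibiotic wells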
YopH inh: YopH tyrosine phosphatase inhibitors, primary screen, biochemical, fluorescence Ex485/Em525; inhibition, %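 (about 10 µM by stock and volumes)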; 0.16% of 140,000 active;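 active means inhibition of 50% or more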;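 further: controls were vehicle for no effect and minimum signal wells for full effect; inactives centre near -20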
Arbovirus anti: antivirals against arbovirus infection, primary screen, cell-based, full library, 10K replicate subset. arbovirus infection cell-based antiviral screen. inhibition, % at 10 µM. 0.37% of 200,000 active;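 active means inhibition from about 30%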;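 further: bluetongue infection of BSR cells; cell survival read as ATP light after 72 h; 0% = infected wells without compound and 100% = uninfected wells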
RecA intein inh: Mtb RecA intein splicing inhibitors, primary screen, biochemical, fluorescence, HTS. 0.75% of 290,000 active. cell-free RecA intein splicing. inhibition, %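 (about 9 µM by stock and volumes)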. Protein RecA (Mycobacterium tuberculosis (strain ATCC 25618 / H37Rv)), P9WHJ3; in the data active means inhibition above about 30%; inconclusive means no clear call, values can overlap the other calls;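 further: 0% = vehicle wells and 100% = reference inhibitor control wells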
Target sequence (P9WHJ3 whole entry, looked up): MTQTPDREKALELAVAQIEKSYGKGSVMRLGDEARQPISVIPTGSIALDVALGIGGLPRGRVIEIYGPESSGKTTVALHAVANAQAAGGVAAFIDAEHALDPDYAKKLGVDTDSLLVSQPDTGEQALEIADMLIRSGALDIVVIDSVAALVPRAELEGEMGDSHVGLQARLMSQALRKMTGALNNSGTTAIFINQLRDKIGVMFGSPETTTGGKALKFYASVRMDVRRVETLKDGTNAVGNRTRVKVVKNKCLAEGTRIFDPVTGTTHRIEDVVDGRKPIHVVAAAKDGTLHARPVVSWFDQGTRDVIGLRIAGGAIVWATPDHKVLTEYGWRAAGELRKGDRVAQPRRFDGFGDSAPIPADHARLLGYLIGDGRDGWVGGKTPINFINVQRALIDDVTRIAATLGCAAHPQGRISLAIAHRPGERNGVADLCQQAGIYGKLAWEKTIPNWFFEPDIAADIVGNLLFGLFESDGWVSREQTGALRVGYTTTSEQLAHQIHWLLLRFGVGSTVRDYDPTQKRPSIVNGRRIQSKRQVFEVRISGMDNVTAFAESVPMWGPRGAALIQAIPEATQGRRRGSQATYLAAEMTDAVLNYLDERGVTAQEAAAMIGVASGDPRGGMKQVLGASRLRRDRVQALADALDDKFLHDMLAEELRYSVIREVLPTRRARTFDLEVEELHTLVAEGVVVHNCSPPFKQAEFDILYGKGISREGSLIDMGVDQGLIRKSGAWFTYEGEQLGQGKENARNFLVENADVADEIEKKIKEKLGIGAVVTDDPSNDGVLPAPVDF
Mtb bLac sens: beta-lactam sensitization of Mtb H37Rv, H37Rv; M. tuberculosis H37Rv growth with meropenem, percent inhibition; hits of this screen are not shown here; inhibition, % at 25 µM; 0.27% of 330,000 active;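 active means about 74% or more and at least 40 points above the plate without the antibiotic, then above 30% in a dose series; inconclusive means first-round hits that could not be retested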;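 further: growth measured after seven days incubation then overnight dye step; 0% = bacteria only wells and 100% = bacteria with antibiotic; twin plates without the antibiotic show which effects depend on it; some results filed as inactive read as strong as hits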
Arbovirus anti repeat: further read-out of Arbovirus anti, marked with its call; inhibition, %; measured here: 10K subset replicate screen; many hits read low in the repeat;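 first of two repeat runs on a subset; 0% = infected and 100% = uninfected wells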
* = called active by the depositor; ? = inconclusive; nt = no result given. An excerpt, so the mix of outcomes need not match the whole.

SMILES	Mtb H37Rv	YopH inh	Arbovirus anti	RecA intein inh	Mtb bLac sens	others
COCCn1c(Cc2ccccc2)nnc1SCC(=O)N(C)C	-14%	-43	-1	5.2	?
CCOC(=O)C(CCCOc1ccccc1C)C(=O)OCC	-5%	-18	-3	nt	80
Cc1nn2c(NCc3ccccn3)cc(C(C)C)nc2c1-c1ccccc1	100%	nt	nt	14	100
CCCn1c(C)cc(/C=C(\C#N)C(=O)OCC(=O)N(C)c2c(N)n(Cc3ccccc3)c(=O)[nH]c2=O)c1C	nt	nt	nt	-13	-7
Cc1cc2ncc(C(=O)Nc3ccccc3)c(C)n2n1	-4%	-26	-1	-4.3	-2
COc1ccc(S(=O)(=O)N2CCCN(CC(=O)Nc3ccccc3F)CC2)cc1	nt	nt	nt	0.9	-4
Cc1cccc(OCc2nc(-c3ccccn3)n[nH]2)c1	6%	-38	-36	-2.3	nt
CCCCCCn1c(SCC(=O)c2ccccc2)nc2c1c(=O)[nH]c(=O)n2C	8%	-19	-2	2.7	-3	Arbovirus anti repeat=-8
CCC(=O)N1CCC2(CC1)Oc1ccc(Cl)cc1C(=O)C21CC(c2ccc(Cl)cc2)=NO1 (stereo unspecified)	65%	nt	nt	9.0	98
CCSc1nnc(-c2cc(Br)ccc2NC(C)=O)c(=O)[nH]1	-9%	nt	nt	-1.1	0
O=C(Cc1cccs1)Nc1nnc(SCC(=O)NC2CCCCC2)s1	-1%	-25	0	-0.6	-6
Cc1ccc(C(=O)Nc2ccc(N3CCN(C)CC3)cc2)c(Cl)c1	nt	nt	nt	-3.1	-8
COc1ccc(C(=O)OCC(=O)Nc2ccccc2)cc1[N+](=O)[O-]	2%	nt	4	nt	4
Cc1cc(C)nc(NC(=O)c2ccc(Cl)cc2Cl)n1	-5%	nt	1	-4.6	-1
COc1cc(/C=C2\C(=O)NC(=O)N(c3ccccc3)C2=O)cc(OC)c1O	4%	-59	0	-6.7	1
COc1cc(/C=C/C(=O)OCC(=O)NCCC2=CCCCC2)ccc1O	6%	nt	-3	6.0	-3
COc1ccccc1N1CCN(c2cc(C)nc3nc(C)nn23)CC1	-5%	-34	-4	-0.6	?	Arbovirus anti repeat=-3
COc1ccc(Cn2c(O)c(C=NCCCn3ccnc3)c(=O)[nH]c2=O)cc1	-11%	-62	0	-1.6	10
COc1cccc(NC(=O)C2CCCN2C(=O)Nc2cccc(F)c2)c1 (stereo unspecified)	0%	-5	-8	1.0	0
COc1ccc(OCc2nc(-c3ccc(F)c(F)c3)cs2)cc1	6%	nt	nt	nt	0
COc1ccc(C(=O)/C=C/c2ccc3c(c2)OCCO3)cc1	1%	nt	nt	nt	3
COc1ccc(-c2csc(N(CCCN(C)C)C(=O)c3ccccc3F)n2)cc1	nt	nt	nt	-1.7	-6
CC(=O)c1cccc(CN2CCC(C(=O)Nc3ccc(Oc4cccnc4)cc3)CC2)c1	nt	nt	nt	1.9	14
O=C(O)CCn1c(=O)[nH]c(=O)n(CCC(=O)O)c1=O	-6%	nt	5	nt	-4
O=C(Nc1nc(-c2ccncc2)cs1)C1COc2ccccc2O1 (stereo unspecified)	nt	-7	-2	0.0	0	Arbovirus anti repeat=5
O=C(COC(=O)c1cc[n+]([O-])cc1)Nc1ccc2c(c1)OCCO2	-9%	-48	17	-2.8	3
O=C(c1ccccc1)N1N=C(c2ccco2)CC1c1cccs1 (stereo unspecified)	8%	nt	-2	9.6	1
Cc1c(NC(=O)c2nn3c(c2Br)NC(c2ccccc2)CC3C(F)(F)F)c(=O)n(-c2ccccc2)n1C (stereo unspecified)	-3%	-8	2	-3.4	-1
CN(CCOc1ccc(Br)cc1)CC(=O)Nc1cccc(S(=O)(=O)NC2=NCCC2)c1	1%	nt	3	-0.1	-4
CCCC(=O)N1CCCC(c2nc(-c3cccs3)no2)C1 (stereo unspecified)	5%	4	13	1.4	0
CCOC(=O)C1(CC2CCCCO2)CCN(S(=O)(=O)c2ccc(C)s2)CC1 (stereo unspecified)	-3%	nt	-5	3.1	1
CCC1(c2ccccc2)NC(=O)N(CC(=O)N(C)CC(=O)Nc2cccc(F)c2)C1=O (stereo unspecified)	nt	nt	nt	-4.8	-9
Cc1nnc(N/N=C/c2c(O)n(-c3cccc(C(F)(F)F)c3)c(=O)c3ccccc23)[nH]c1=O	0%	nt	nt	-1.7	48
CCOc1ccc(N=Cc2c(O)n(-c3cccc(C)n3)c(=O)c3ccccc23)cc1	15µM*	13	-4	-9.1	99
Cc1ccc(CNC(=O)c2cc(Cl)cc(Cl)c2)n1C	nt	nt	nt	2.6	5
CN1C(c2ccc(F)cc2)=CS/C1=C(\C#N)c1nnc2n1-c1ccccc1SC2	48%	-36	-19	3.1	80
COc1ccc(S(=O)(=O)Nc2ccc(Cc3ccncc3)cc2)cc1OC	nt	nt	nt	0.0	-3
COc1ccc(N2CCN(C(=O)CSc3nnc4c(C)cc5cc(C)ccc5n34)CC2)cc1	nt	-8	-14	0.5	84
COC(=O)c1ccc(NC(=O)c2ccccc2SC)cc1	7%	15	3	-0.8	-11
C=C1CCN(C(C(=O)OC)C(C)C)S(=O)(=O)c2ccc(F)cc21 (stereo unspecified)	-12%	nt	nt	0.9	6
COc1ccccc1C(=O)NNC(=O)C(=O)Nc1ccc(C)cc1	nt	nt	nt	1.4	95
CCOc1ccc(N2C(=O)CC(N3CCN(C(=O)CN4CCCC4)CC3)C2=O)cc1 (stereo unspecified)	-3%	11	8	0.1	1
CCCCn1c(N)c(N(CC)C(=O)CSCc2ccc(C)cc2)c(=O)[nH]c1=O	nt	nt	nt	4.5	-6
COc1ccc2[nH]c(C(=O)N/N=C/c3ccccc3OC)cc2c1	nt	nt	nt	-5.2	-4
CCn1cc(C(=O)NCCCN2CCCC(C)C2)c(=O)c2cc(S(=O)(=O)N3CCc4ccccc4C3)ccc21 (stereo unspecified)	-9%	nt	-32	nt	-6
Cc1c(-c2ccc(Cl)cc2)[n+](=O)c2c(n1[O-])CCCC2	-15%	nt	nt	-6.2	0
CCn1c(CC(=O)Nc2ccc(C)cc2)nnc1SCC(=O)Nc1nc(C)cs1	-7%	-27	-8	-0.1	5
CCOC(=O)CN(c1ccccn1)S(=O)(=O)c1ccccc1	4%	-13	4	-0.4	1
CN(CCC#N)C(=O)c1cc2c(s1)-c1ccccc1SC2	nt	nt	nt	-36	5
O=c1[nH]c(SCc2nc3ccccc3n2Cc2ccccc2)nc2ccccc12	5%	-6	-15	2.6	4
C=CCn1c(SC(C)C(=O)Nc2ccc(Cl)cn2)nnc1C1CC1 (stereo unspecified)	nt	nt	nt	0.7	-5
Cc1c(Nc2cc(=O)oc3ccccc23)c(=O)n(-c2ccccc2)n1C	-1%	-23	3	-0.5	-3
Cc1c(Br)c([N+](=O)[O-])nn1CC(=O)Nc1cccc2nonc12	-5%	nt	0	5.5	-1
CCOC(=O)c1cnc2nc(C)nn2c1N	-13%	nt	7	-1.2	-3
CCC(=O)Nc1ccc(N/C(N)=N/c2nc(C)cc(C)n2)cc1	-2%	nt	nt	-1.1	1
Cc1ccc(CSc2[nH]c(=O)ncc2C)cc1	nt	nt	nt	-1.6	5
COc1ccccc1N1Cc2ccccc2C1	-12%	-30	5	3.4	0
Cc1ccc(-c2ccc(=O)n(CC(=O)N3CCN(c4cc(Cl)ccc4C)CC3)n2)cc1	39%	-50	-23	9.3	95
Cc1ccc2[nH]c(=O)c(CN(Cc3cccnc3)Cc3nnnn3CCN3CCOCC3)cc2c1	-2%	-30	12	-3.6	-3
CC(C(=O)O)n1c2ccccc2c2cn[nH]c(=O)c21 (stereo unspecified)	nt	nt	nt	-3.3	1
More entries follow:
SMILES	Mtb H37Rv	YopH inh	Arbovirus anti	RecA intein inh	Mtb bLac sens	others
N#CC1=C(N)Oc2c(sc3ccccc23)C1c1ccco1 (stereo unspecified)	8%	0	-1	-0.9	6	Arbovirus anti repeat=-17
CC1CSc2n(-c3cccc(C(F)(F)F)c3)cc(-c3ccccc3)[n+]21 (stereo unspecified)	2%	nt	2	0.1	-6
Cc1nnsc1C(=O)NNc1ccc(Cl)cc1	43%	nt	nt	nt	60
CCCCOC(=O)Cn1c(=O)c2c(nc(Br)n2Cc2ccccc2)n(C)c1=O	3%	-27	4	3.8	-5
COC(=O)c1ccc(CSc2nc3ccccc3c(=O)n2-c2cccc(OC)c2)o1	-3%	-30	10	12	10
Cc1nc(N)sc1-c1csc(NCc2ccccc2)n1	16%	3	-12	3.9	4
CC(C)C(NS(=O)(=O)/C=C/c1ccccc1)C(=O)NCc1ccc(F)cc1 (stereo unspecified)	nt	nt	nt	4.6	3
CCN(CC)C(=O)c1c([N+](=O)[O-])c(C(C)(C)C)nn1C	3%	-7	-7	2.0	-7
COc1ccc(-c2cc3c(=O)n(CC(=O)NCc4ccccc4F)ncn3n2)cc1	nt	nt	nt	-5.4	-5
CCOc1ccccc1NC(=O)Nc1ccon1	-9%	nt	nt	-0.4	1
COCCNC(=S)N/N=C/c1ccc(OCc2ccc(C(=O)OC)cc2)cc1	-1%	-35	-2	0.9	-6
COc1cc(OC)cc(C(=O)NNC(=O)c2ccccn2)c1	?	-29	-35	3.5	96

Ordered by molar mass (rising): part of the list above.
SMILES	Mtb H37Rv	YopH inh	Arbovirus anti	RecA intein inh	Mtb bLac sens	others
COc1ccccc1N1Cc2ccccc2C1	-12%	-30	5	3.4	0
Cc1ccc(CSc2[nH]c(=O)ncc2C)cc1	nt	nt	nt	-1.6	5
CCOc1ccccc1NC(=O)Nc1ccon1	-9%	nt	nt	-0.4	1
CC(C(=O)O)n1c2ccccc2c2cn[nH]c(=O)c21 (stereo unspecified)	nt	nt	nt	-3.3	1
CCN(CC)C(=O)c1c([N+](=O)[O-])c(C(C)(C)C)nn1C	3%	-7	-7	2.0	-7
N#CC1=C(N)Oc2c(sc3ccccc23)C1c1ccco1 (stereo unspecified)	8%	0	-1	-0.9	6	Arbovirus anti repeat=-17
COc1cc(OC)cc(C(=O)NNC(=O)c2ccccn2)c1	?	-29	-35	3.5	96
Cc1nc(N)sc1-c1csc(NCc2ccccc2)n1	16%	3	-12	3.9	4
CCC(=O)Nc1ccc(N/C(N)=N/c2nc(C)cc(C)n2)cc1	-2%	nt	nt	-1.1	1
CC1CSc2n(-c3cccc(C(F)(F)F)c3)cc(-c3ccccc3)[n+]21 (stereo unspecified)	2%	nt	2	0.1	-6
COCCNC(=S)N/N=C/c1ccc(OCc2ccc(C(=O)OC)cc2)cc1	-1%	-35	-2	0.9	-6
COC(=O)c1ccc(CSc2nc3ccccc3c(=O)n2-c2cccc(OC)c2)o1	-3%	-30	10	12	10
Cc1ccc(-c2ccc(=O)n(CC(=O)N3CCN(c4cc(Cl)ccc4C)CC3)n2)cc1	39%	-50	-23	9.3	95
CCCCOC(=O)Cn1c(=O)c2c(nc(Br)n2Cc2ccccc2)n(C)c1=O	3%	-27	4	3.8	-5
Cc1ccc2[nH]c(=O)c(CN(Cc3cccnc3)Cc3nnnn3CCN3CCOCC3)cc2c1	-2%	-30	12	-3.6	-3

Later entries.
SMILES	Mtb H37Rv	YopH inh	Arbovirus anti	RecA intein inh	Mtb bLac sens	others
O=C(NCC1CCCN(C(=O)c2cscn2)C1)c1ccc(-c2ccccc2)cc1 (stereo unspecified)	5%	nt	9	2.8	-2
NS(=O)(=O)c1ccc(CCNC(=O)CSc2nc3ccsc3c(=O)n2CCCCCC(=O)O)cc1	-4%	nt	8	0.0	6
Cc1cc(C)c(C)c(S(=O)(=O)NCC(=O)NCc2ccco2)c1C	-10%	-30	9	1.5	1
O=C1Cc2ccccc2Sc2c(OCCN3CCCCC3)cccc21	2%	-17	-11	-2.3	5
CC(=O)c1ccc(OCC(O)CN2CCN(c3ccccn3)CC2)cc1 (stereo unspecified)	-6%	nt	2	-1.2	-1	Arbovirus anti repeat=-4
COc1ccc(CN(C(=O)CCC(=O)Nc2cc(C)on2)C(C(=O)NC(C)(C)C)c2cccc(OC)c2OC)cc1 (stereo unspecified)	nt	nt	nt	-0.8	1
O=C(Nc1ccc(N2CCOCC2)cc1)c1cnsn1	nt	-29	2	1.3	nt
COc1ccc(NC(=O)CSc2nnc(CNC(=O)COc3ccc(Cl)cc3)o2)c(OC)c1	-6%	-53	6	-0.1	-5
O=c1ccc2cc(S(=O)(=O)Nc3ccc(F)cc3)ccc2o1	0%	-37	14	-3.6	-14
CC(C)C[C@H](NC(=O)c1nc[nH]c1C(=O)N[C@@H](CC(C)C)C(=O)OC(C)(C)C)C(=O)OC(C)(C)C	17%	nt	nt	2.3	-3
